# Assay outcomes (PubChem BioAssay)
# VDR inhibitor – blocks the human vitamin D receptor; VDR-SRC2-3 peptide fluorescence polarization, 2 h; Potency, µM, for inactives: max response, negative = inhibition, hits mostly inhibitors; hit rate 0.93% among 400,000; AID 504847; active = well fitted inhibition curve with a large enough effect; inconclusive = small, poorly fitted or top-dose-only effect, or another doubt; inactive = no such curve, though single readings can be large or run the other way; note: series mostly up to about 120 µM
# Target sequence (P11473 whole entry, looked up): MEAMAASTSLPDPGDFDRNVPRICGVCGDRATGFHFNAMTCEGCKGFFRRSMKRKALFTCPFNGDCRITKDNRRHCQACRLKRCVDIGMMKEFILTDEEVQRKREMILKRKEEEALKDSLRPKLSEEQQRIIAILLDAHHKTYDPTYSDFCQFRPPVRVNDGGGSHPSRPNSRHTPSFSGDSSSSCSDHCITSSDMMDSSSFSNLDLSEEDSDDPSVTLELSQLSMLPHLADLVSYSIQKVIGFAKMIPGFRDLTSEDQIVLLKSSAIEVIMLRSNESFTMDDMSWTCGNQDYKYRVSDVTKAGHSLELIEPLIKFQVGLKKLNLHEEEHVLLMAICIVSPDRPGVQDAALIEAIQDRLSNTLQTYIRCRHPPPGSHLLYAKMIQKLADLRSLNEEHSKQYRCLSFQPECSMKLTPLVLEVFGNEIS
#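 FP read-out; VDR + SRC2-3 coactivator peptide; 23 nl compound by pintool; 2 h RT incubation; reagents held at 4 deg C, protected from light.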
# Active calls of the source: *; ? = inconclusive; & = joins results of further samples. % is set by controls: 0 for no effect and ±100 for the full control effect; potency is the fitted concentration of half-maximal effect. These rows are one share of the data; the hit share may differ from the screen's.
VDR inhibitor,SMILES
-10%,O=C(/C=C/c1cc(Br)ccc1F)OCC(=O)N1CCCC1
-20%,CC1CCC(=C(C#N)c2nc(-c3cc4ccccc4oc3=O)cs2)CC1 (stereo not drawn)
0%,Cc1ccc(CNc2oc(-c3ccco3)nc2C#N)cc1
-18%&8%,CC[C@@H]1C(c2cccc(Cl)c2)=NN(c2ccc(Br)cc2)[C@H]1C(=O)N1CCOC1=O
2%,Cc1ccc2nc(NC(=O)Cn3nc(C)c([N+](=O)[O-])c3C)sc2c1
2%,COC(C/C=C\[C@@H](O)COCc1ccccc1)OC
6%,CCS(=O)(=O)N1CCCC(C(=O)NCc2cccc(OC)c2)C1 (stereo not drawn)
-23%,Cc1ccc(NC(=O)Nc2ccccc2)cc1[N+](=O)[O-]
-3%,COc1ccccc1CNC(=O)COC(=O)c1sc(C)nc1C
-18%,Cc1ccc(S(=O)(=O)N2CCOCC2)cc1NC(=O)Nc1ccc([N+](=O)[O-])cc1
14%,Cc1cccn2c(=O)c(C=C(C#N)C#N)c(N3CCN(c4cccc(Cl)c4)CC3)nc12
15%,CCc1ccc(NC(=O)Cn2nnc(C(=O)NCc3cccs3)c2N)cc1
28%,COc1ccc2c(c1)c1c(c(=O)n(-c3cc(Cl)ccc3C)c(=O)n1Cc1ccc(F)cc1)n2C
13%,CNc1nc(C23CC4CC(CC(C4)C2)C3)cs1
3%,O=C(CNC(=O)c1ccco1)NCC(=O)OCc1cccc(C(=O)Oc2ccccc2)c1
-21%,O=C(c1ccc(Cl)nc1)N1CCN(S(=O)(=O)c2ccccc2)CC1
-8%,Cc1cc(NC(=O)CSc2nc(Cc3ccccc3)c(C)[nH]2)no1
-2%,COc1ccc(CCNCc2cc(C)n(-c3ccc(OC)cc3)c2C)cc1
5%,CCN1CCN(C(c2cccs2)C(C)NC(=O)c2ccco2)CC1 (stereo not drawn)
-1%&11%,COc1ccc(C2c3c(ncn(CCN4CCOCC4)c3=N)Oc3ccc4ccccc4c32)cc1OC (stereo not drawn)
13%,CCn1cc(/C=N\NC(=O)c2ccc(Cl)cc2)cn1
-7%,C/C(=N\OCC(=O)Nc1nc2ccccc2s1)c1ccccc1
11%,NS(=O)(=O)c1ccc(CNc2ccc3ccccc3n2)cc1
-5%,CCOC(=O)c1cc(-c2ccc(F)cc2)n(CCC(=O)NC2CCCCC2)c1C

# 17 entries from above in another layout.
smiles	VDR inhibitor
Cc1ccc(NC(=O)Nc2ccccc2)cc1[N+](=O)[O-]	-23%
COc1ccccc1CNC(=O)COC(=O)c1sc(C)nc1C	-3%
Cc1ccc(S(=O)(=O)N2CCOCC2)cc1NC(=O)Nc1ccc([N+](=O)[O-])cc1	-18%
Cc1cccn2c(=O)c(C=C(C#N)C#N)c(N3CCN(c4cccc(Cl)c4)CC3)nc12	14%
CCc1ccc(NC(=O)Cn2nnc(C(=O)NCc3cccs3)c2N)cc1	15%
COc1ccc2c(c1)c1c(c(=O)n(-c3cc(Cl)ccc3C)c(=O)n1Cc1ccc(F)cc1)n2C	28%
CNc1nc(C23CC4CC(CC(C4)C2)C3)cs1	13%
O=C(CNC(=O)c1ccco1)NCC(=O)OCc1cccc(C(=O)Oc2ccccc2)c1	3%
O=C(c1ccc(Cl)nc1)N1CCN(S(=O)(=O)c2ccccc2)CC1	-21%
Cc1cc(NC(=O)CSc2nc(Cc3ccccc3)c(C)[nH]2)no1	-8%
COc1ccc(CCNCc2cc(C)n(-c3ccc(OC)cc3)c2C)cc1	-2%
CCN1CCN(C(c2cccs2)C(C)NC(=O)c2ccco2)CC1 (stereo not drawn)	5%
COc1ccc(C2c3c(ncn(CCN4CCOCC4)c3=N)Oc3ccc4ccccc4c32)cc1OC (stereo not drawn)	-1%&11%
CCn1cc(/C=N\NC(=O)c2ccc(Cl)cc2)cn1	13%
C/C(=N\OCC(=O)Nc1nc2ccccc2s1)c1ccccc1	-7%
NS(=O)(=O)c1ccc(CNc2ccc3ccccc3n2)cc1	11%
CCOC(=O)c1cc(-c2ccc(F)cc2)n(CCC(=O)NC2CCCCC2)c1C	-5%

# (next part)
VDR inhibitor,SMILES
-3%,CCn1c(SCC(=O)Nc2ccc(NC(C)=O)cc2)nc2c([nH]c3ccccc32)c1=O
13%,NC(=O)C1CCCN(C(=O)CCC(=O)c2cccs2)C1 (stereo not drawn)
-9%,CC(=O)Nc1ccc(C(=O)N(C)c2ccccc2)cc1
-15%,CC(C)(C)C(=O)NC1CC2CCCC(C1)N2C(=O)Nc1ccc(Cl)cc1 (stereo not drawn)
-14%,Cc1c(Cl)c(=O)oc2cc(OCC(=O)N3CCCC(C)C3)ccc12 (stereo not drawn)
-2%,CN(C1CCS(=O)(=O)C1)S(=O)(=O)c1cccc2nsnc12 (stereo not drawn)
-5%,Cc1ccc(-c2nc3ccccc3s2)cc1S(=O)(=O)N1CCCC1
-4%,CCOCC(=O)Nc1sc2c(c1C(=O)OCC)CCCC2
-14%,CC(C)(C)OC(=O)NCCCCCNC(=O)c1[nH]cnc1C(=O)N[C@@H](CCCCNC(=O)OC(C)(C)C)C(=O)OC(C)(C)C
-26%,Cc1ccc(CN(C)c2ccc(S(=O)(=O)N3CCCC3)cn2)cc1
?,OC1C=C2CCN3Cc4cc5c(cc4C(C1O)C23)OCO5 (stereo not drawn)
14%,COC(=O)c1ccc(Cn2c(SCC(=O)N(C)c3ccccc3)nc3ccccc32)cc1
4%,Cc1c(NC(=O)CN2C(=O)C3C4C=CC(C4)C3C2=O)c(=O)n(-c2ccccc2)n1C (stereo not drawn)
8%,O=C(CC(SCCO)c1ccc2c(c1)OCO2)c1cccs1 (stereo not drawn)
7%,O=C(CN1C(=O)C(=O)N(CCC2=CCCCC2)C1=O)c1c[nH]c2ccccc12
-15%,O=C(CCCCCNC(=O)N1CCn2c1nc1ccccc12)N[C@H](C(=O)O)c1ccccc1
12%,COc1cccc(CC2(CO)CCN(C(=O)NCCc3ccccc3)CC2)c1
-1%,COC(=O)C(C#N)C(=C1C(=O)CC(C)(C)CC1=O)c1ccc(O)cc1 (stereo not drawn)
79µM*,O=C(/C=C/c1c(F)cccc1Cl)c1ccc(O)cc1
7%,COc1ccc(C2CC(C(F)(F)F)n3nc(C(=O)O)c(Br)c3N2)cc1 (stereo not drawn)
-23%,CC1CCc2cc(F)ccc2N1S(=O)(=O)c1ccc(Cl)nc1 (stereo not drawn)
-7%,CCCCn1c(-c2csc(CC)c2)n[nH]c1=S
?,COc1ccc(CNc2cc(-c3ccccc3OC)ncn2)c(OC)c1
-2%,O=C1OCCC1Sc1nnnn1-c1ccc(Cl)cc1 (stereo not drawn)
22%,CC(C)C1/C(=N/O)CC(c2ccccc2)NC1c1ccccc1 (stereo not drawn)
12%,C=CCn1c(SCC(=O)c2c(C)[nH]c3ccccc23)nnc1-c1ccncc1
11%,Cc1ccn(CC(=O)N2CCCC(Nc3ccc(F)c(F)c3)C2)n1 (stereo not drawn)
14%,CC[C@H](C)[C@H](NC(=O)[C@H](CCC(=O)O)NC(=O)[C@@H](N)CO)C(=O)N[C@@H](CCC(N)=O)C(=O)N[C@@H](CC(C)C)C(=O)N[C@@H](CCSC)C(=O)N[C@@H](Cc1cnc[nH]1)C(=O)N[C@@H](CC(N)=O)C(=O)N[C@@H](CC(C)C)C(=O)NCC(=O)N[C@@H](CCCCN)C(=O)N[C@@H](Cc1cnc[nH]1)C(=O)N[C@@H](CC(C)C)C(=O)N[C@@H](CC(N)=O)C(=O)N[C@@H](CO)C(=O)N[C@@H](CCSC)C(=O)N[C@@H](CCC(=O)O)C(=O)N[C@@H](CCCNC(=N)N)C(=O)N[C@H](C(=O)N[C@@H](CCC(=O)O)C(=O)N[C@@H](Cc1c[nH]c2ccccc12)C(=O)N[C@@H](CC(C)C)C(=O)N[C@@H](CCCNC(=N)N)C(=O)N[C@@H](CCCCN)C(=O)N[C@@H](CCCCN)C(=O)N[C@@H](CC(C)C)C(=O)N[C@@H](CCC(N)=O)C(=O)N[C@@H](CC(=O)O)C(=O)N[C@H](C(=O)N[C@@H](Cc1cnc[nH]1)C(=O)N[C@@H](CC(N)=O)C(=O)N[C@@H](Cc1ccccc1)C(=O)O)C(C)C)C(C)C
-24%,COc1ccc(CCNC(=O)C23CN(Cc4ccccc4)CC2C(c2ccc([N+](=O)[O-])cc2)=NO3)cc1 (stereo not drawn)
-5%,O=c1[nH]c2ccccc2nc1C(F)(F)F
7%,Cc1c(NS(=O)(=O)c2ccc(Br)s2)c(=O)n(-c2ccccc2)n1C
-22%,CCCCNC(=O)CNC(=S)N(Cc1ccc(C)cc1)Cc1ccco1
-14%,COc1ccc(OC)c(CCNC(=O)CN2C(=O)COc3ccc(S(=O)(=O)N4CCOCC4)cc32)c1
10%,COc1cc(C(=O)NC(=S)Nc2cccc(-c3cc4ccccc4oc3=O)c2)cc(OC)c1OC
-6%,CCNS(=O)(=O)c1ccc(NC(=O)c2ccccc2OCC)cc1
4%,CCCCn1nc2cc(C(=O)NCC3CC3)ccc2c1OCC
5%,COc1ccc(-c2csc3ncn(-c4cccc(C)c4)c(=O)c23)cc1OC
11%,CC1CCCCN1C(=O)Nc1ccccc1Cl (stereo not drawn)
0%,COc1ccc2nc(SCC(=O)Nc3ccccc3C)[nH]c2c1
12%,O=C(CCC1CCCCC1)NCCS(=O)(=O)N1CCN(c2ccc(F)cc2)CC1
-1%,COc1ccc(CSc2nnc(NC(C)=O)s2)cc1[N+](=O)[O-]
-19%,CCOC(=O)c1c(C)[nH]sc1=S
-4%,COc1cccc(OC)c1OCCOCCn1cnc2ccccc2c1=O
4%,CCc1ccccc1-n1ncc(C(=O)Nc2ccccc2OC)c1C
7%,COc1ccc(NC(=O)C(c2ccc(C)cc2)N(C)C(=O)c2cnccn2)cc1 (stereo not drawn)
-1%,Cc1ccc(NC(=O)N2CCCn3c(SCC(=O)c4ccccc4)nnc32)cc1
-9%,Cc1ccc(S(=O)(=O)Oc2ccc3ccc(O)cc3c2)cc1
?,CC(C)CCNC(=O)C1CCN(S(=O)(=O)c2ccc3nc4c(c(C(=O)O)c3c2)CCCCC4)CC1
2%,COc1ccc(CCNC(=O)c2cnc(Cl)c(Cl)c2)cc1
0%,CCn1cc(CN2CCC(n3nccc3NC(=O)c3cccc(F)c3)CC2)c(C)n1
11%,CCCC(=O)Nc1cc(-c2nc3cccnc3s2)ccc1C
-4%,Cc1ccc(S(=O)(=O)c2cc3c(=O)n4ccccc4nc3n(C)c2=N)cc1
-10%,O=C(Nc1nccs1)[C@@H]1CCCN1S(=O)(=O)c1ccc(Cl)cc1
12%,O=C(N/N=C/c1ccc(OC(F)F)cc1OC(F)F)c1ccc(Br)cc1
-19%,Clc1ccc(OCc2nn3c(-c4ccco4)nnc3s2)cc1
0%,COc1ccccc1CNC(=O)c1sccc1-c1ccccc1

# New compounds follow.
VDR inhibitor,SMILES
1%,CCN(CC)c1ccc(/C=N/N2CCOCC2)c(O)c1
-9%,O=C(O)c1ccccc1C(=O)NCc1ccc2c(c1)OCO2
-5%,COc1cccc(C(=O)NC23CC4CC(CC(C4)C2)C3)c1
-11%,CC(C)CC(CO)N1CCN(C(=O)c2ccc(Cl)c(Cl)c2)CCC1=O (stereo not drawn)
8%,Cc1ccc(CC2S/C(=C(/C#N)C(=O)NCc3ccco3)N(c3ccccc3)C2=O)cc1 (stereo not drawn)
-20%,Cc1ccc(NS(=O)(=O)c2ccccc2)c2c1CC(C)(C)O2
-12%,C=CCNC(C(=O)Nc1cccc(OC)c1)c1ccccc1 (stereo not drawn)
-12%,O=C(NCC1CCCO1)C1CCN(S(=O)(=O)c2cccc3nonc23)CC1 (stereo not drawn)
7%,Cc1ccc(-n2cnn(-c3ccc([N+](=O)[O-])cc3[N+](=O)[O-])c2=O)cc1
-9%,CCCCn1c(SCC(=O)NC2CC2)nnc1-c1ccncc1
-2%,C=C(C)COc1ccc(-c2nc(N)ncc2Oc2ccccc2OC)c(O)c1
0%,O=C(Nc1cccc(C(F)(F)F)c1)c1cccnc1N1CCN(c2ccccc2)CC1
-2%,COc1ccc(NC2CCCN(C(=O)CCc3ccncc3)C2)cc1OC (stereo not drawn)
3%,Cc1ccccc1CN1C(=O)C2(OCCCO2)c2ccccc21
0%,N#Cc1c(N)sc2c1CCCCCC2
1%,Cc1cc(C)c(NC(=S)N2CCC(N(C)CC3CCCO3)CC2)c(C)c1 (stereo not drawn)
16%,Cc1ccccc1C1c2[nH]c3ccccc3c2C[C@H]2C(=O)N(c3ccccc3C(=O)NCCN3CCOCC3)C(=O)N12 (stereo partly drawn)
8%,COc1cccc(NC(=O)c2cnsn2)c1
5%&-3%,CCCCC/C=C\C/C=C\C/C=C\CC1OC1CCCC(=O)O (stereo not drawn)
71µM*,CC1=C(/C=C/C(C)=C/C=C/C(C)=C/C(=O)O)C(C)(C)CCC1O (stereo not drawn)
-21%,COc1cccc(-c2coc3cc4oc(=O)c(CCC(=O)O)c(C)c4cc23)c1
-5%,COC(=O)c1cccc(NC(=S)Nc2ccccc2Cl)c1
-1%,CC12CCC(C(=O)Nc3cc(Cl)ccc3Cl)(C(Br)C1=O)C2(C)C (stereo not drawn)
-1%&3%,CCOc1ccc(CNC(=O)Cn2c(=O)c3cccn3c3ccccc32)cc1
16%,CCc1ccc(NC(=O)c2cnccn2)cc1
6%,COCc1n[nH]c(=S)n1-c1ccccc1
3%,O=C(NCc1ccc(F)cc1)c1ccc2oc(=O)n(Cc3ccccc3)c2c1
?,CCn1c(=O)c(C(=O)CN2CCN(S(=O)(=O)c3ccc(C)cc3C)CC2)c(N)n(Cc2ccccc2)c1=O
-24%,CN1C(=O)/C(=C/c2ccc(OCc3ccc(F)cc3)cc2)N(C)C1=S
-11%,O=C(NCCCN1CCCC1=O)c1cccc(Oc2ccccc2)c1
-8%,CC(C)Oc1ccc(S(=O)(=O)N2CCOCC2)cc1NC(=O)c1ccc(N2CCCC2=O)cc1
2%,Cc1cc(S(=O)(=O)n2ccnc2)c(Cl)cc1Cl
-25%,COc1cc(OC)c(C(=O)OC(C)C(=O)Nc2cccc(C(F)(F)F)c2)cc1OC (stereo not drawn)
